MenB inh: M. tuberculosis MenB inhibitors, primary screen, biochemical, absorbance. 1,4-dihydroxy-2-naphthoyl-CoA synthase (Mycobacterium tuberculosis (strain ATCC 25618 / …. MenB enzyme assay, absorbance read-out; some hits fall short of the stated cut. inhibition, %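 (about 12 µg/mL by stock and volumes)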. hit rate 0.43% among 100,000;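 active = mean of two replicates above 30%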;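 also: 0% = no compound and 100% = wells with inactive enzyme; the first replicate is given; strong numbers were not always called active; inactives centre near -10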
Mtb MbtI inh: MbtI salicylate synthase inhibitors, primary screen, biochemical, fluorescence intensity | P9WFX0 | purified MbtI enzyme, fluorescence intensity read-out | inhibition, %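 (about 17 µg/mL by stock and volumes)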 | hit rate 0.89% among 100,000;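 active = above 50% in both replicates, above 80% if mildly self-fluorescent; inactive = the rest, strongly fluorescent compounds included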;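 also: 0% = mean of negative and 100% = mean of positive controls; one replicate is shown; some compounds called inactive have numbers as strong as hits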
Target sequence (P9WFX0 whole entry, looked up): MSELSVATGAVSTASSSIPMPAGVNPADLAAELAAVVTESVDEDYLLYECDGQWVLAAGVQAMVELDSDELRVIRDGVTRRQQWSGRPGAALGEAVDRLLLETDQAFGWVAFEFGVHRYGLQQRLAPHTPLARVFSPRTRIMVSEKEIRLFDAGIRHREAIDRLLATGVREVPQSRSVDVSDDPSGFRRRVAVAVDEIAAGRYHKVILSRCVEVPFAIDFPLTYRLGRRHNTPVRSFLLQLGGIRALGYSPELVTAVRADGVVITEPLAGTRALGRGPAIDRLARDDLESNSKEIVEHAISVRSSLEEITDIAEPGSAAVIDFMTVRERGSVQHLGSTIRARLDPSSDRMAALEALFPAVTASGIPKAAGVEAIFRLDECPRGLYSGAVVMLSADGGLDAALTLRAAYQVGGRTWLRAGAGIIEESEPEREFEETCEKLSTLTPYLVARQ
Polio RdRp inh: poliovirus RdRp elongation inhibitors, primary screen, biochemical, fluorescence polarization, total intensity; hit rate 0.66% among 150,000; % elongation, % (compound at 16.7 µg/mL); poliovirus polymerase elongation; stronger effect = lower value; in the data active = % elongation below about 90%; also: some results filed as inactive read as strong as hits
Target sequence (P03300 1749-2209 limits assumed): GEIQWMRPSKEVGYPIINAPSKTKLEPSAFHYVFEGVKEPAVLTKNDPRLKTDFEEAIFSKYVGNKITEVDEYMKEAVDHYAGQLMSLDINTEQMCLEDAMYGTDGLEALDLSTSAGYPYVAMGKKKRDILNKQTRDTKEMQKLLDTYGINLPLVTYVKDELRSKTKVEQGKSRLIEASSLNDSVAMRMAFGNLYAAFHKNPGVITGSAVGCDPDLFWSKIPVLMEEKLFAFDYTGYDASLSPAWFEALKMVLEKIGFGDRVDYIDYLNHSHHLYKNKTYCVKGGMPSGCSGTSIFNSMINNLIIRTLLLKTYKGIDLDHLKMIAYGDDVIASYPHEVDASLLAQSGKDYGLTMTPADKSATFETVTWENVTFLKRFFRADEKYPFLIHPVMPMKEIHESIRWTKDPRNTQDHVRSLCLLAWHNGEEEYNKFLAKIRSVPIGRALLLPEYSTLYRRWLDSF
Polio RdRp inh intensity: recorded beside Polio RdRp inh, whose call it bears; % elongation; measured here: total intensity read-out; formula for this scale not given here;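 total fluorescence in place of polarization; lower means less elongation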
* = called active by the depositor; x = no result given.

structure	MenB inh	Mtb MbtI inh	Polio RdRp inh	Polio RdRp inh intensity
O=C(Cn1cc(/C=C2\NC(=O)NC2=O)c2ccccc21)Nc1ccccc1	-29	5	103	101
COc1ccc(CN(C)C(=O)c2cccc(S(=O)(=O)N(C)C)c2)c(OC)c1	-16	10	100	99
Cn1c(=O)c(=O)[nH]c2cnccc21	-1	108	100	103
CC(Sc1ncnc2c1oc1ccccc12)c1ccccc1 (stereo not given)	13	5	100	100
O=C(O)c1ccc(N2Cc3ccc(Br)cc3C2)cc1	-13	x	104	110
CC(C)c1cc(NC(=O)COC(=O)c2ccc3[nH]c4c(c3c2)CCCC4)on1	7	39	108	106
COC(=O)c1nn(-c2ccc3c(c2)CCN3C(C)=O)cc1O	15	-86	102	100
CCC1(c2cccc(O)c2)CCCCN(C)C1 (stereo not given)	-9	-17	99	99
COc1ccc(NC(=O)C2C3C=CC(O3)C2C(=O)NCc2cccnc2)cc1 (stereo not given)	-28	-7	104	102
CS(=O)(=O)N1CCC(C(=O)NC2CCCCC2)CC1	-31	-3	101	102
O=C(O)C1CCN1C1CCCCC1 (stereo not given)	-23	-5	104	104
Cc1cc(NC(=O)CN(C)C2CCCCC2)nc2c1c(=O)oc1ccccc12	-9	12	99	102
CCCCNC(=O)Nc1nnc(Cc2ccccc2)s1	-10	20	104	101
COC(=O)c1ccc(S(=O)(=O)NCCc2ccccc2OC)n1C	-18	0	104	101
C=CCn1c(C)nnc1SC(C)C(=O)Nc1ccc(S(=O)(=O)NC(C)C)cc1 (stereo not given)	-10	-5	104	106
O=C(NCCc1cn2ccccc2n1)c1cccc(C(F)(F)F)c1	-3	-26	104	107
Cc1ccc(NC(=O)Nc2ccc3c(c2)C(=O)NC3=O)cc1	1	-7	101	107
CC(=O)Oc1cc2c(C(=O)NCc3ccccn3)c(C)oc2c2ccccc12	-3	19	101	104
Cc1nc(C(=O)O)nn1-c1ccc(Cl)cc1	6	-9	106	104
CCOC(=O)N1CCN(c2nc(N)c(C#N)c(CC#N)c2C#N)CC1	-10	119	105	115
Clc1ccc2c(c1)CCN2	36*	27	100	109
CCN(CC)C(=O)NCC12CC3CC(CC(C3)C1)C2	-24	-9	103	99
N/C(COc1ccc(-c2nnco2)cc1)=N\OC(=O)c1ccc(Cl)cc1	11	1	103	103
Cc1cc(C)n2ncc(C(=O)N(C)Cc3ccccc3)c2n1	-20	116	101	103
O=C(NCCc1ccco1)c1ccc(Cn2c(SCc3ccccc3)nc3cccnc32)cc1	-28	87	102	103
COc1cccc2c1oc(=O)c1c(NC(C)=O)nc(-c3cccs3)nc12	11	-5	103	107
O=C1c2ccccc2C2=Nc3ccccc3SC(c3ccc(F)cc3)C12 (stereo not given)	-49	0	101	102
CC(=NC1CC1)c1c(C)[nH]n(-c2nc3ccccc3s2)c1=O	-9	x	100	105
CCCC(=O)Nc1ccccc1NC(=O)CCC	-25	-8	99	99
COc1ccc(C2C3CCc4ccccc4C3=NN2C(=O)c2cccs2)cc1 (stereo not given)	24	8	104	97
CCCn1c(=O)c(C#N)nn(-c2ccc(OC)cc2)c1=O	-12	-5	106	102
Cc1c(NC(=O)C(C)n2nc(C(=O)O)c3ccccc3c2=O)c(=O)n(-c2ccccc2)n1C (stereo not given)	8	-3	100	103
N#CCn1c(CN2CCCCC2C(N)=O)nc2scc(-c3ccccc3)c2c1=O (stereo not given)	2	15	127	140
O=C(O)CC1(CC2=NS(=O)(=O)c3ccccc3N2)CCCC1	-6	8	100	102
CCOc1cc(C(=O)Nc2ccc3nc(N4CCN(CC)CC4)cc(C)c3c2)cc(OCC)c1OCC	-2	-7	102	101
CC(=O)N(C)S(=O)(=O)c1ccc(C)cc1	x	-9	102	102
Cc1ccc(SCc2nccn2Cc2ccc(Cl)cc2)cc1	-2	-10	99	100
C=CCn1c(=O)c2ccccc2n2c(SCC(=O)N3CCc4ccccc43)nnc12	-38	37	102	94
CC(OC(=O)c1ccc(Br)o1)C(=O)NCC1CCCCC1 (stereo not given)	-31	-9	x	x
O=C(CN(Cc1ccco1)C(=O)Cn1cnnn1)Nc1ccc(Cl)c(C(F)(F)F)c1	-22	6	103	104
COc1ccc(CCNC(=O)Cn2c(-n3nc(C)cc3C)nc(C)c(C)c2=O)cc1OC	-42	-8	104	96
Cc1cc(Nc2cccc(C(F)(F)F)c2)nc2ccc(NC(=O)c3ccccn3)cc12	-72	13	103	105
COc1ccc(-c2csc(NC(=O)Cc3cccc4ccccc34)c2C(=O)O)cc1	-15	x	100	104
O=C(Nc1ccccc1C(=O)NCCCO)c1ccccc1	4	-4	101	101
CCOc1ccnc2sc(C(=O)c3cccnc3)c(N)c12	-44	-19	102	103
CC1Cn2c(C(=O)NCc3ccccc3)cc3cccc(c32)S1 (stereo not given)	-39	116	106	104
COc1ccccc1-c1nnc(SCC(=O)Nc2cccc3nsnc23)n1-c1ccccc1	-17	-8	106	103
CCOc1ccc(S(=O)(=O)N2CCCC(C(=O)N3CCN(CC)CC3)C2)cc1Cl (stereo not given)	-44	-9	104	101

4 consecutive entries already listed, quoted:
structure	MenB inh	Mtb MbtI inh	Polio RdRp inh	Polio RdRp inh intensity
Cc1ccc(SCc2nccn2Cc2ccc(Cl)cc2)cc1	-2	-10	99	100
C=CCn1c(=O)c2ccccc2n2c(SCC(=O)N3CCc4ccccc43)nnc12	-38	37	102	94
CC(OC(=O)c1ccc(Br)o1)C(=O)NCC1CCCCC1 (stereo not given)	-31	-9	x	x
O=C(CN(Cc1ccco1)C(=O)Cn1cnnn1)Nc1ccc(Cl)c(C(F)(F)F)c1	-22	6	103	104

Additional results.
structure	MenB inh	Mtb MbtI inh	Polio RdRp inh	Polio RdRp inh intensity
CCN(CC)S(=O)(=O)c1ccc(O)c(C(=O)OCC(=O)NC23CC4CC(CC(C4)C2)C3)c1	-17	-8	101	104
O=C(NC1=NCCS1)c1cc2ccccc2o1	-1	35	102	105
CCCc1c(Cc2c(F)cccc2Cl)c(=O)oc2cc(O)ccc12	-16	100	107	101
Cc1cc(C)n2nc3nc(N4CCC(C)CC4)nc(-c4ccccc4)c3c2n1	6	-6	101	102
Cc1nc(NC(=O)C2CC3CCCC(C2)C3=O)sc1C (stereo not given)	-10	6	99	102
COc1ccc(C2CC(=O)N3CN(CCC(C)C)CSC3=C2C#N)cc1OC (stereo not given)	-2	60	99	101
CC1=C/C(=N/NC(=O)c2ccc(CSc3nncn3C)cc2)CC(C)(C)C1	2	7	101	110
COc1ccc(-n2cccc2C=C(C#N)C#N)cc1	-13	4	102	105
COC(=O)c1cc(-c2ccccc2)nc2c1c(C)nn2-c1ccccc1	x	-2	103	103
CCN(CC(=O)NCc1ccc(F)cc1)C(=O)C1CCCC1	-8	3	100	96
Oc1ccc(C2N(c3ccccc3)CCN2c2ccccc2)cc1	8	x	106	104
O=C(O)CCN1C(=O)SC(Nc2ccccc2)C1=O (stereo not given)	-6	1	102	105
Cc1[nH]c2ccc(C(=O)NN)cc2c1C	-54	-1	104	101
O=C(Oc1ccc2c(=O)c(Cl)coc2c1)c1cccnc1	-22	-2	103	101
CN1CCN(c2nc(N3CCCc4ccccc43)nc(N3CCCc4ccccc43)n2)CC1	6	12	102	104
Nc1nc(-c2ccco2)nc(-c2ccco2)n1	-3	76	99	100
Cc1cccc(Cn2c(=O)n(-c3ccccc3)c(=O)c3sccc32)c1	-25	-12	103	107
CC1(C)CC(Nc2nc(Cl)c(C#N)c(Cl)c2Cl)CC(C)(C)N1	-23	-6	104	101
O=C(NCCCl)c1ccc2ccccc2n1	x	-2	102	95
COC(=O)c1ccc(COC(=O)CNS(=O)(=O)c2ccccc2)cc1	-21	-20	99	101
Cc1cc(C)nc(SCc2ccc(C(=O)N/N=C/c3ccco3)cc2)n1	-11	21	102	103
O=C(CN(C1=NC2CS(=O)(=O)CC2S1)c1ccccc1F)Nc1ccccc1 (stereo not given)	-9	7	99	102
CS(=O)(=O)c1ccc2nc(NC(=O)C3CCCO3)sc2c1 (stereo not given)	-3	x	103	100
Cc1cc(OCC(=O)Nc2ccccc2Cc2ccccc2)no1	-23	1	112	122
CCOc1ccc(CN2CCC(n3nc(-c4ccoc4C)oc3=O)CC2)cc1	-48	-2	104	101
COc1ccc(OC)c(/C=c2\sc3nnc(-c4ccccc4Cl)n3c2=O)c1	-18	x	91	167
CCOc1ccc(/C=N/NC=O)cc1	10	22	101	104
COc1ccc(C)cc1NC(=O)C(OC(=O)c1ccc(Br)o1)c1ccccc1 (stereo not given)	-25	-6	100	101
NC(=O)Cn1c(=O)n(Cc2ccccc2)c(=O)c2cccnc21	-10	51	102	93
Cn1c(CSCC(=O)Nc2ccccc2)nnc1SCc1ccc(Cl)cc1	-8	-7	105	108
O=C1c2cccc3cccc(c23)N1CSc1nc2ccccc2s1	-3	x	101	102
COc1ccc2oc(=O)c(C(=O)NC3CCCCC3C)cc2c1 (stereo not given)	-18	-30	98	101
O=C1N(c2ccccc2)C(c2ccccc2)C1(F)F (stereo not given)	x	-15	101	106
CC1CN(S(=O)(=O)c2ccc(F)c(F)c2)CC(C)O1 (stereo not given)	x	-8	101	102
CCN1CCCC(OC(=O)c2ccc3c(=O)n4c(nc3c2)CCCCC4)C1 (stereo not given)	-11	10	102	104
CCOC(=O)C1CCc2nc3ccccc3c(=O)n21 (stereo not given)	5	-4	101	101
CSc1cccc(-n2nnc(C(N)=O)c2C)c1	-15	-7	105	107
O=C1C=C/C(=N\OC(=O)c2ccccc2)C2=C1C1C=CC2C1 (stereo not given)	-24	-3	103	91
O=C(CSc1nc2ccccc2s1)NNc1ncnc2c1cnn2Cc1ccccc1	6	56*	100	103
N#CC(C(=O)c1ccc(Cl)cc1Cl)c1nc2ccccc2[nH]1 (stereo not given)	-14	x	106	97
O=C(O)C1CCN(CCc2ccccn2)CC1	0	-6	101	104
O=C(Nc1c(C(=O)c2ccc(Br)cc2)oc2ccccc12)c1ccco1	7	0	101	103
Nc1cccc(NC(=O)CCC(=O)O)c1	-9	-5	99	100
O=C(Cn1nc2n(c1=O)-c1ccccc1SC2)N/N=C/c1ccncc1	12	3	99	102
S=C(c1ccccc1)N1CCN(Cc2ccccc2)CC1	-57	-4	110	103
Cc1ccc(NC(=O)CSc2nc3n[nH]c(C)c3c(=N)n2-c2ccccc2C)cc1	3	36	100	103
O=C(OCn1nnc2ccccc2c1=O)C1=COCCO1	-23	0	104	106
O=C(O)c1cc(Sc2ccccc2)nc2ccccc12	-13	-1	103	105
CC(Sc1ncn[nH]1)C(=O)Nc1ccc(Cl)cc1 (stereo not given)	-9	-13	101	104
O=C(Cn1nc(-c2ccc3c(c2)OCCO3)ccc1=O)Nc1cccc2cccnc12	-8	8	102	102
Cc1c(Cl)cccc1NC(=O)C1NC(=O)CC1c1ccccc1 (stereo not given)	-14	-6	101	103
CCc1ccc(N2CC(C(=O)NCc3ccc4c(c3)OCO4)CC2=O)cc1 (stereo not given)	-11	1	103	103
CC(=O)NC(Nc1ccccc1)(C(F)(F)F)C(F)(F)F	15	-7	106	113
COC(=O)c1cnc(N2CCCN(C(=O)c3cc(C(C)(C)C)nn3C)CC2)nc1C(F)(F)F	4	-6	105	111
c1ccc(CCn2nnnc2C(c2cccnc2)N2CCc3ccccc32)cc1 (stereo not given)	-31	5	101	101
O=C(CSc1ncnc2c1nnn2Cc1ccccc1F)NCc1ccco1	-3	12	100	103
O=C(OCc1cccc(C(F)(F)F)c1)c1ccc[nH]c1=O	-23	-6	102	106
Cc1c(C(=O)Nc2ccc(S(N)(=O)=O)cc2)sc2nc3n(c(=O)c12)CCCC3	-19	108	99	103
Cn1c2ccccc2c2nn(-c3ccccc3)c(=O)cc21	-12	x	103	103
CN1CCN(Cc2c(C#N)c3ccccc3n2C)CC1	-6	x	107	107

Later entries
structure	MenB inh	Mtb MbtI inh	Polio RdRp inh	Polio RdRp inh intensity
CN=c1scc(-c2ccc(Cl)cc2)n1C	-2	-9	100	103
O=C(OCCCCN1C(=O)c2ccccc2C1=O)c1n[nH]c2ccccc12	-14	-114	105	108
S=c1[nH]ccn1Cc1ccccc1	-1	68*	102	108
CC(=O)Nc1ccccc1NC(=O)CN(C)S(=O)(=O)c1ccccc1	3	7	x	x
CCC(C)NS(=O)(=O)c1ccccc1C(F)(F)F (stereo not given)	-9	-7	108	110
Cc1onc(-c2c(Cl)cccc2Cl)c1NC(=O)N(C)C1CCCCC1	7	-2	98	103

Arranged by formula weight (descending): some entries from above
structure	MenB inh	Mtb MbtI inh	Polio RdRp inh	Polio RdRp inh intensity
O=C(OCCCCN1C(=O)c2ccccc2C1=O)c1n[nH]c2ccccc12	-14	-114	105	108
CC(=O)Nc1ccccc1NC(=O)CN(C)S(=O)(=O)c1ccccc1	3	7	x	x
CCC(C)NS(=O)(=O)c1ccccc1C(F)(F)F (stereo not given)	-9	-7	108	110
CN1CCN(Cc2c(C#N)c3ccccc3n2C)CC1	-6	x	107	107
